# Screening data: PubChem, several laboratories
# Mtb hypoxia inh: reduces hypoxia-regulated biosensor signal in M. tuberculosis. M. tuberculosis hypoxia-regulated fluorescent reporter, fluorescence. fluorescence inhibition, % (test concentration not listed). actives 0.1% (n = 300,000). AID 1159583;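 active means 35 to 45% if threefold the growth effect, above 45% if 1.5-fold the growth effect; inactive means the rest, general growth blockers included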;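 further: wells of about 50 µL received 100 nL stock; 0% = vehicle wells and 100% = reference inhibitor wells; whole bacteria with a GFP reporter of the hypoxia response; strong numbers were not always called active; many hits fall short of the cut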
# PrP UTR inh: inhibition of PrP 5' UTR reporter expression; cell-based PrP 5' UTR mRNA reporter, plate reader; inhibition, % (concentration not given with the values); actives 0.35% (n = 340,000);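 active means every replicate at 50% or more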;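 further: 0 = median of the neutral control wells; tested in H4 reporter cells; numbers are from one replicate; inactives centre near -14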
# Bead autofluor: counter-screen for toxin protease inhibitors: compound fluorescence | AID 624483 | fluorescence intensity (concentration not given with the values) | actives 3.1% (n = 360,000) | compound autofluorescence counterscreen, microsphere flow cytometry; active compounds read high;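 active means at least 3 SD above the mean of all compounds, about 16000 in these data; inconclusive means too few beads counted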;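 further: 100 nL of 1 mM stock went into each well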
# BJeLR lethal: BJeLR cell viability loss. BJeLR (HRASV12) viability, CellTiter-Glo ATP luminescence, 48 h; reference of the scale not given here. inhibition, % (no concentration beside the values). actives 0.17% (n = 300,000);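 active means replicate mean above 50%; inconclusive means above 50% but judged a plate artefact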;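 further: 50 nL library stock added to about 25 µL; numbers are from one replicate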
# RN4220 kill: S. aureus RN4220 growth inhibition | actives 0.33% (n = 330,000) | inhibition, % (concentration not given with the values) | OD600, 16 h;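 active means z-score of -3 or lower and OD600 up to 0.18 on both plates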;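 further: plate controls were untreated cells for no effect and reference antibiotic for full effect; stock transfer was 100 nL into about 80 µL; one replicate is shown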
# ugtP null kill: kills S. aureus RN4220 lacking UgtP; S. aureus RN4220 ugtP deletion, OD600 growth, 16 h; some inactives read as strong as hits; growth inhibition, % (no concentration beside the values); actives 0.54% (n = 330,000);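 active means z-score under -3 and OD600 up to 0.15 on both plates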;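 further: plate controls were untreated wells for no effect and antibiotic for full effect; wells of about 80 µL received 100 nL stock; the first replicate is given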
# Mtb hypoxia inh growth: second read-out of Mtb hypoxia inh, no call of its own (marks repeat the call); growth inhibition, %; measured here: M. tuberculosis growth (absorbance);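 0% = vehicle and 100% = reference antibiotic; read after six days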
# * hit, by the source's call; ? = inconclusive; . = no result given.
SMILES,Mtb hypoxia inh,Mtb hypoxia inh growth,PrP UTR inh,Bead autofluor,BJeLR lethal,RN4220 kill,ugtP null kill
Cc1cccc(OCC(=O)Nc2ccccc2C(F)(F)F)c1,5,1,-24,2537,3,4.1,1
Cc1ccccc1NC(=O)c1ccc(S(=O)(=O)N2CCCC2)cc1,5,6,-12,5194,0,4.2,7
CN(C)C(CNc1ncnc2sccc12)c1ccccc1 (configuration not stated),10,8,-32,2585,3,6.4,-1
CCCC(=O)Nc1cc(S(=O)(=O)N2CCCCC2)ccc1N1CCOCC1,7,3,-11,8778,.,4.3,13
O=CN1CCN(C(=O)COc2ccc(Cl)cc2Br)CC1,-3,-1,-5,2056,6,2.4,-4
COCCN(C(=O)CSc1nnc(-c2ccccc2F)n1N)c1c(N)n(Cc2ccccc2)c(=O)[nH]c1=O,10,-1,-14,4193,2,1.9,16
Nc1nnnn1N=Cc1cccc(Br)c1,4,2,.,.,.,4.5,4
Oc1sc(C=Nc2ccccc2)c2ccccc12,16,7,-118,3857,0,0.6,-4
COCC1CCN(C(=O)c2cc(COc3ccccc3SC)on2)C1 (configuration not stated),-9,-3,-14,4412,3,-0.1,-16
CCN(CC)c1ccc(/C=N/NC(=S)NCc2ccccc2)c(O)c1,.,.,6,2029,14,.,.
Nc1nc(N(Cc2ccccc2)Cc2ccccc2)nc(C(F)(F)F)n1,-8,-6,.,.,.,6.7,98*
CN(C)c1ccccc1C(=O)c1ccccc1N(C)C,10,8,-63,3034,15,5.9,3
CCOC(=O)CSc1nnc2c(n1)C1(C)CCC2C1(C)C (configuration not stated),4,4,-24,6877,-16,7.8,4
O=C(COc1ccc(Br)cc1)Nc1ccc2c(c1)C(=O)NC2=O,-5,2,-15,2403,-7,0.9,1
COc1cccc2c1OCCC2=NNC(=O)COc1ccc(C)cc1,-2,0,.,.,.,0.3,4

# Brought forward from above: three compounds, followed by the next part.
SMILES,Mtb hypoxia inh,Mtb hypoxia inh growth,PrP UTR inh,Bead autofluor,BJeLR lethal,RN4220 kill,ugtP null kill
CCOC(=O)CSc1nnc2c(n1)C1(C)CCC2C1(C)C (configuration not stated),4,4,-24,6877,-16,7.8,4
O=C(COc1ccc(Br)cc1)Nc1ccc2c(c1)C(=O)NC2=O,-5,2,-15,2403,-7,0.9,1
COc1cccc2c1OCCC2=NNC(=O)COc1ccc(C)cc1,-2,0,.,.,.,0.3,4
Cc1cc(C)c(NC(=O)CSCc2c(C)noc2C)c(C)c1,1,3,1,6377,.,3.0,1
Cc1ccccc1-c1nc(CN2CCC(C(=O)N3CCC(C(N)=O)CC3)CC2)c(C)o1,1,2,-23,4629,-8,20,16
Cc1ccc(S(=O)(=O)N2CCOC23CCN(C(=O)C(=O)NCCC(C)C)CC3)cc1,0,2,0,7605,-7,1.5,9
c1cncc(CNc2ncnc3ccc(-c4ccc5c(c4)OCCO5)cc23)c1,13,6,-14,4357,.,2.4,-13
CC(C)Cc1nc(SCC(=O)NCc2ccccc2)n[nH]1,.,.,-9,2821,-11,0.8,4
CCN(CC(=O)Nc1cccc(F)c1)CC(=O)Nc1ccccc1OC,-2,3,-14,4043,10,1.5,2
COc1ccc(C(=O)CSc2ncn[nH]2)cc1OC,13,13,-24,2864,-3,2.4,-5
CC1CCC2(CC1)NC(=O)N(CC(=O)N1CCN(c3ccccc3)CC1)C2=O (configuration not stated),7,6,-9,4030,.,3.5,4
COc1ccc(C2N(c3cc(Cl)ccc3OC)C(=O)C3CCCN32)c(OC)c1 (configuration not stated),.,.,-19,5899,-8,0.6,-9
COc1ccc(-c2ccc(=O)n(CC(=O)Nc3cccc(O)c3)n2)cc1OC,3,7,-13,10967,.,2.6,-1
O=C(OCCN1C(=O)c2ccccc2C1=O)c1cccc(OC(F)F)c1,.,.,-34,4806,8,4.9,-11
CNC(=S)N/N=C/c1ccccc1Cl,.,.,-18,2159,-10,.,.
COc1ccc(C(CNC(=O)c2ccc(OCc3c(C)noc3C)cc2)N2CCCC2)cc1 (configuration not stated),-18,1,11,17256*,.,-0.4,2
COC(=O)c1cn(C(=O)c2ccc(OC)c(OC)c2)c2ccccc12,6,4,-34,3350,9,3.7,7
CC(NC(=O)Cn1cnnn1)c1cccc(C(F)(F)F)c1 (configuration not stated),5,5,-31,4001,-7,2.2,4
CCOCCn1c2ccccc2c2nc3ccccc3nc21,.,.,2,3544,-5,-0.3,-9
CN1C/C(=C\c2ccc(N3CCOCC3)cc2)C(=O)/C(=C/c2ccc(N3CCOCC3)cc2)C1,14,-3,-29,9043,1,2.4,-1
O=C(NC(=S)NCc1ccccc1Cl)c1cccs1,8,8,-12,3383,.,-0.2,-35
Cc1ccc(S(=O)(=O)NNC(=O)c2ccncc2)cc1[N+](=O)[O-],6,2,-26,5015,1,3.6,2
CC(C)OC(=O)CC(=O)CSc1nc2c(cc1C#N)CCCCCC2,3,8,-17,2934,-6,3.0,5
Cc1ccc2c(C)c(C(=O)N(Cc3ccncc3)CC3CCCO3)oc2c1C (configuration not stated),3,0,-30,5456,-5,2.9,-1
Cc1ccc(Nc2ccc(-n3ccnc3)nn2)cc1C,-1,4,-12,3206,16,-9.7,-20
COc1ccc(S(=O)(=O)N2CCCCCC2)cc1C(=O)OCC(=O)Nc1cc(C)on1,14,-3,.,.,0,6.2,5
Cn1nnc2c[n+](CC(=O)c3ccc4ccccc4c3)cc(Br)c21,-3,6,-13,6470,0,1.0,-2
Cc1cccnc1NC(=S)NC(=O)c1cncc(Br)c1,-3,-2,-50,11163,-2,0.9,-5
COc1ccc(/C=N/NC(=S)Nc2ccccc2)cc1COc1ccc(F)cc1,.,.,-13,4353,-19,.,.
Cc1cccc(C(CC(=O)N2CCCC2)c2ccccc2)c1O (configuration not stated),3,1,-23,2514,7,-7.0,5
COCCn1nnnc1CN1CCOCC1,6,-4,-11,11175,6,1.4,7
COc1cccc(NC(=O)CCC2CCN(C(=O)c3cccc(NC(C)=O)c3)CC2)c1,8,6,-26,5599,4,3.7,7
CNC(=O)ON=C(N)Cc1csc2ccc(Cl)cc12,4,1,.,.,.,1.5,20
Cc1ccc(/C=N/NC(=O)Cc2c(F)cccc2Cl)s1,.,.,-28,4853,1,.,.
O=C(O)c1ccc(NC2=C(N3CCOCC3)C(=O)c3ccccc3C2=O)cc1,-4,8,0,2219,9,14,-4
Cc1ccc(C(=O)Nc2cnc3ccccc3c2)cc1,10,19,89*,2473,9,0.6,-5
O=C(NCc1cccnc1)c1ccc(S(=O)(=O)N2CCCCC2)cc1,9,17,-25,10498,3,5.4,0
COc1ccccc1-c1nc(SC)n[nH]1,3,7,-31,2664,-2,1.1,10
CCCN(CC(=O)Nc1ccccc1OC)C(=O)CCC(=O)c1ccc(OCC)cc1,0,-1,-14,9180,.,4.1,1
Cc1ccccc1-c1cc(C(=O)NCc2cccc(C(F)(F)F)c2)nn1CC1CC(c2cccc([N+](=O)[O-])c2)=NO1 (configuration not stated),-5,-7,-13,3528,.,-6.6,-22
CCOc1ccc(CCNC(=O)COC(=O)Cn2cnc3c2c(=O)n(C)c(=O)n3C)cc1OCC,10,11,-24,?,2,1.4,6
CCOC(=O)N1CC=C2C(C#N)=C(N)C(C#N)(C#N)[C@H](c3cccs3)[C@H]2C1,3,9,-11,10459,-15,3.5,-6
CC(=O)Nc1cccc(NC(=O)CSc2ccc(-c3ccco3)nn2)c1,6,-13,-8,6897,-10,19,-3
c1ccc(Cc2c[nH]c3ccccc23)cc1,15,7,-8,2846,-4,-0.8,5
NC(=O)CN1CCN(Cc2ccc3c(c2)OCO3)CC1,6,-1,-21,.,1,0.5,6
CN(C)c1ccc(CN2CCCC(O)C2)cc1 (configuration not stated),-2,2,-12,9639,0,7.2,5
OCCNCC(O)Cn1ccc2ccccc21 (configuration not stated),5,11,-4,5993,2,0.0,-3
CC1Sc2ccc(S(=O)(=O)CCC(=O)NC3CCCC(C)C3C)cc2NC1=O (configuration not stated),7,13,-10,5245,-3,2.9,4
COc1cccc(N2CCN(c3c(C#N)c(C(F)(F)F)nn3C)CC2)c1,10,12,5,3310,10,13,-1
Cc1ccc(S(=O)(=O)N2CCCOC2CNC(=O)C(=O)NCc2ccccn2)cc1 (configuration not stated),3,0,-2,6093,6,2.2,5
CC(C)CCn1c(=O)c2sccc2n2c(CCCC(=O)N3CCC(N4CCCCC4)CC3)nnc12,7,-10,-17,4851,-5,5.8,15
Cn1ncc2c(=O)[nH]c(N)nc21,5,1,-17,4177,.,3.3,4
Cc1ccc(SCC(=O)OCC(=O)NCc2ccco2)cc1,1,-1,-30,2834,.,2.4,1
CC(=O)Nc1ccc(S(=O)(=O)NCc2ccc(C(=O)NCc3ccc(Cl)cc3)cc2)cc1,14,11,-17,8757,2,3.7,1
Cc1cccc(OCc2ccccc2)n1,-4,7,-28,3658,.,2.9,1
Cc1cc(OC(C)C(=O)N2C[C@H]3C[C@@H](C2)c2cccc(=O)n2C3)c2c(C)c(C)c(=O)oc2c1 (some centres not stated),.,.,-1,5546,5,4.4,-8
CCOC(=O)c1c(NC(=O)CN(C)C2CCN(C)CC2)sc(C(=O)Nc2ccccc2)c1C,14,15,-25,5101,7,-0.2,3
CCOCCCNC(=O)C(c1ccc(OC)cc1)N(Cc1ccc2c(c1)OCO2)C(=O)CNC(C)=O (configuration not stated),12,-5,-8,4478,3,-1.9,-1
NCCNc1ccc([N+](=O)[O-])c(NC2CC2)c1,-1,4,-14,2047,-7,-1.0,10
Cc1cc(=O)n2nc(N3CCCC(C(=O)NCCc4ccccc4)C3)sc2n1 (configuration not stated),4,7,-24,2502,.,-5.3,5
COc1ccccc1C(CNC(=O)c1cccc(NS(=O)(=O)c2ccc(C)c(F)c2)c1)N1CCCC1 (configuration not stated),-8,8,-10,12708,-3,-3.7,-6
CCOC(=O)/C(C#N)=C/c1c(N2CCN(c3ccccc3)CC2)nc2c(C)cccn2c1=O,-2,6,-19,3998,0,3.3,13
Cc1cc(C)cc(C(=O)Nc2c3c(nn2C(C)(C)C)CS(=O)(=O)C3)c1,3,0,-20,5594,-6,2.2,2
# (more compounds)
SMILES,Mtb hypoxia inh,Mtb hypoxia inh growth,PrP UTR inh,Bead autofluor,BJeLR lethal,RN4220 kill,ugtP null kill
O=C(COC(=O)CNC(=O)c1ccc(-c2ccccc2)cc1)NCc1ccco1,0,12,-13,4378,-4,0.6,2
CC(C)c1cccc(OCCCCN(C)C)c1,17,11,-21,4746,-7,5.0,6
CCOC(=O)C1CCCN(C(=O)c2cc(Nc3ccc(OC)c(OC)c3)nc3ccccc23)C1 (configuration not stated),-9,1,-3,4661,0,7.1,2
Cc1ccc2oc(=O)c3cnn(CC(=O)N4CCCCC4C)c3c2c1 (configuration not stated),-3,7,30,4568,8,-4.4,-2
CCOC(=O)N1CCN(C(=O)CSc2nc3c(cnn3-c3ccc(C)cc3)c(=O)[nH]2)CC1,-1,12,5,5536,3,5.9,5
O=C(CCC(=O)N1CCCC1)Nc1nnc(C(F)(F)F)s1,6,-1,-8,8795,-5,2.7,16
O=c1c2ccccc2nnn1Cc1ccccn1,5,2,-10,8198,-17,5.8,11
CCN(CCCCCCN)c1ccc2c(=O)[nH][nH]c(=O)c2c1,-4,1,-33,2746,-15,1.2,2
COc1ccc(N(C(=O)c2snc(C(N)=O)c2N)C(C(=O)NC2CCCC2)c2ccco2)cc1OC (configuration not stated),-2,-5,-9,3263,-16,2.3,5
O=C(NCCNc1ccc([N+](=O)[O-])cc1)c1ccccc1F,-4,5,-26,4158,9,1.6,4
CCOc1ccc(CCNC(=O)CCNC(=O)c2ccc(Br)cc2)cc1OCC,-4,-11,-8,4847,-7,1.9,1
O=C(NC1CCCC1)C(c1cccnc1)N(C(=O)c1csnn1)c1ccccc1Cl (configuration not stated),3,4,-34,5210,-9,0.7,3

# Quoted at random: four compounds from above
SMILES,Mtb hypoxia inh,Mtb hypoxia inh growth,PrP UTR inh,Bead autofluor,BJeLR lethal,RN4220 kill,ugtP null kill
CC(C)Cc1nc(SCC(=O)NCc2ccccc2)n[nH]1,.,.,-9,2821,-11,0.8,4
OCCNCC(O)Cn1ccc2ccccc21 (configuration not stated),5,11,-4,5993,2,0.0,-3
CCCN(CC(=O)Nc1ccccc1OC)C(=O)CCC(=O)c1ccc(OCC)cc1,0,-1,-14,9180,.,4.1,1
Cc1ccc(Nc2ccc(-n3ccnc3)nn2)cc1C,-1,4,-12,3206,16,-9.7,-20
